Bioassay records from PubChem BioAssay.
Bead autofluor = flagged as autofluorescent in microsphere protease counterscreen. 360,000 compounds, 3.1% hits. AID 624483. compound autofluorescence counterscreen, microsphere flow cytometry; hits give high values. fluorescence intensity (concentration not given with the values);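 active = at least 3 SD above the mean of all compounds, about 16000 in these data; inconclusive = too few beads counted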;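 also: 100 nL of 1 mM stock went into each well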
Mtb hypoxia rep = PubChem AID 1159583. M. tuberculosis hypoxia-regulated fluorescent reporter, fluorescence. fluorescence inhibition, % (concentration not given with the values). 300,000 compounds, 0.1% hits;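 active = 35 to 45% if threefold the growth effect, above 45% if 1.5-fold the growth effect; inactive = the rest, general growth blockers included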;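 also: wells of about 50 µL received 100 nL stock; 0% = vehicle wells and 100% = reference inhibitor wells; whole bacteria with a GFP reporter of the hypoxia response; strong numbers were not always called active; many hits fall short of the cut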
BJeLR lethal = MLPCN primary cell-based screen for lethality selective to Ras in HRASV12 cells. BJeLR (HRASV12) viability, CellTiter-Glo ATP luminescence, 48 h; reference of the scale not given here. inhibition, % (no concentration beside the values). 300,000 compounds, 0.17% hits;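 active = replicate mean above 50%; inconclusive = above 50% but judged a plate artefact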;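 also: 50 nL library stock added to about 25 µL; numbers are from one replicate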
Sa RN4220 lethal = growth inhibition of S. aureus RN4220, primary screen, OD600. 16 h. inhibition, % (test concentration not listed). 330,000 compounds, 0.33% hits. AID 1259311, 2017;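 active = z-score of -3 or lower and OD600 up to 0.18 on both plates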;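 also: plate controls were untreated cells for no effect and reference antibiotic for full effect; stock transfer was 100 nL into about 80 µL; one replicate is shown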
ugtP null kill = growth inhibition of ugtP-null S. aureus, primary screen, RN4220 ugtP deletion, OD600; 16 h; some inactives read as strong as hits; growth inhibition, % (test concentration not listed); 330,000 compounds, 0.54% hits; AID 1259309, 2017;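 active = z-score under -3 and OD600 up to 0.15 on both plates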;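 also: plate controls were untreated wells for no effect and antibiotic for full effect; wells of about 80 µL received 100 nL stock; the first replicate is given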
PrP UTR inh = inhibition of PrP 5' UTR reporter expression | cell-based PrP 5' UTR mRNA reporter, plate reader | inhibition, % (concentration not given with the values) | 340,000 compounds, 0.35% hits | AID 488862, 2010;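 active = every replicate at 50% or more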;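 also: 0 = median of the neutral control wells; tested in H4 reporter cells; numbers are from one replicate; inactives centre near -14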
Mtb hypoxia rep growth = second read-out of Mtb hypoxia rep, no call of its own (marks repeat the call); growth inhibition, %; measured here: M. tuberculosis growth (absorbance);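 0% = vehicle and 100% = reference antibiotic; read after six days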
An asterisk follows results filed as active; u = inconclusive; x = no result given.

A first look, 3 compounds:
SMILES | Bead autofluor | Mtb hypoxia rep | Mtb hypoxia rep growth | BJeLR lethal | Sa RN4220 lethal | ugtP null kill | PrP UTR inh
CC1Sc2ccc(S(=O)(=O)CCC(=O)N3CCN(c4cccc(Cl)c4)CC3)cc2NC1=O (stereo not given) | x | -14.6 | 2.9 | -10.1 | 6.2 | -1.3 | -20.2
Cc1c(Br)c([N+](=O)[O-])nn1CC(=O)Nc1ccc(C(C)C)cc1 | 4514 | 3.3 | 7.6 | 10.5 | 3.7 | -4.2 | -33.5
C/C(=N\NC(=O)c1cccc([N+](=O)[O-])c1)c1cccs1 | 4576 | x | x | -4.4 | x | x | -12.3

Results, repeating the preview:
SMILES | Bead autofluor | Mtb hypoxia rep | Mtb hypoxia rep growth | BJeLR lethal | Sa RN4220 lethal | ugtP null kill | PrP UTR inh
CC1Sc2ccc(S(=O)(=O)CCC(=O)N3CCN(c4cccc(Cl)c4)CC3)cc2NC1=O (stereo not given) | x | -14.6 | 2.9 | -10.1 | 6.2 | -1.3 | -20.2
Cc1c(Br)c([N+](=O)[O-])nn1CC(=O)Nc1ccc(C(C)C)cc1 | 4514 | 3.3 | 7.6 | 10.5 | 3.7 | -4.2 | -33.5
C/C(=N\NC(=O)c1cccc([N+](=O)[O-])c1)c1cccs1 | 4576 | x | x | -4.4 | x | x | -12.3
CCCCNC(=O)Nc1cc(C)on1 | 20643* | 1.5 | 5.7 | -15.1 | 5.1 | -4.7 | -11.8
COc1ccc(C(C#N)c2ccc(Cl)nn2)cc1 (stereo not given) | 3587 | -9.6 | 4.1 | -1.5 | 0.2 | 1.2 | -15.9
COc1ccccc1C(=O)NC(=O)CSc1nnc(C)s1 | 5735 | 0.2 | -1.6 | 0.1 | 1.3 | 2.1 | 0.9
Cc1ccc(-n2c(=S)[nH]c3c(oc4ccccc43)c2=O)cc1C | 2244 | 4.6 | -8.3 | -5.4 | 7.0 | -8.9 | -5.1
Cc1cccnc1NC1(C(F)(F)F)N=C2SCCN2C1=O (stereo not given) | 3149 | 2.7 | 2.9 | 6.4 | 5.9 | 18.1 | -0.3
CCCCN(C)CCCNC(=O)c1ccc(N2CCCC2=O)cc1 | 4562 | -2.4 | 13.5 | -4.6 | -7.3 | 1.0 | -5.9
Cc1cc(NS(=O)(=O)c2ccc(NC(=O)c3cc4cc(Br)ccc4oc3=O)cc2)no1 | 5107 | 7.9 | 21.1 | -1.5 | -1.1 | -2.5 | -19.8
CC(C)CCOP(=O)(c1ccc(N(C)C)cc1)C(O)c1ccc(C(C)C)cc1 (stereo not given) | 3211 | -11.3 | 1.3 | 2.2 | 1.5 | -19.7 | -23.4
COc1cc(C2C=C(Nc3ccccc3)C(=O)N2c2ccccc2)ccc1O (stereo not given) | 1924 | 4.1 | 7.0 | -2.1 | 0.5 | -12.9 | -29.3
CC(C)(C)N(Cc1ccccc1)C(=O)COC(=O)c1cccc([N+](=O)[O-])c1 | 4783 | 1.9 | -8.2 | 28.9 | -0.5 | 2.8 | -13.1
COc1ccccc1NC(=O)CSc1nc2nc(C)cc(C)c2c(=O)[nH]1 | 2428 | 0.2 | 4.0 | -4.3 | 5.2 | -0.7 | -18.4
Cc1ccc(NC(=O)COC(=O)Cn2ccc(C(F)(F)F)n2)cc1Cl | 3782 | -5.4 | -0.3 | x | 3.8 | 0.6 | -5.5
O=C(/C=C/c1ccccc1)NC(NC(=S)Nc1cc(Cl)ccc1Cl)C(Cl)(Cl)Cl (stereo not given) | 10247 | 3.1 | 6.5 | 1.6 | 31.1 | -18.9 | -17.7
COC(=O)c1cc(OC)c(OC)cc1NC(=O)c1cccc(C)c1 | 1975 | -0.6 | 3.7 | 2.9 | 5.0 | -14.2 | -1.1
CCOc1cc2c(cc1OCC)-n1cccc1C(c1cc(C)c(OC)cc1C)NC2 (stereo not given) | 4124 | 0.2 | -2.8 | 2.1 | 4.8 | -0.6 | -9.0
COc1cccc(CNC(=O)CCC2CCCN(C(=O)c3ccoc3C)C2)c1 (stereo not given) | 3870 | 2.0 | -11.9 | 0.2 | 7.4 | 5.4 | 13.0
COc1cccc(CNC(=O)COC(=O)C2CCN(c3ccc(C(F)(F)F)cn3)CC2)c1 | 3953 | 7.9 | 3.9 | x | -6.5 | 4.8 | -13.5
CCN(Cc1cc(OC)c(OC)c(OC)c1)C(=S)Nc1cccc(SC)c1 | 5928 | 17.9 | 13.9 | 0.8 | 1.3 | 2.9 | -21.1
CCC(=O)c1ccccc1OCCN1CCN(CC)CC1 | 4591 | 9.8 | 0.5 | -1.9 | 1.6 | 4.8 | -31.6
COc1cc(OC)cc(C(=O)N[C@H](C(=O)OCc2cc(=O)oc3cc(C)ccc23)C(C)C)c1 | 8792 | 6.6 | 0.1 | -1.9 | -4.6 | -0.7 | -34.6
COc1cc(CCCN2C(N)=NCC2c2ccccc2)cc(OC)c1OC (stereo not given) | x | -3.3 | 4.9 | x | -2.5 | 0.5 | x
Cn1c(=O)c2c(ncn2Cc2nnc(N)s2)n(C)c1=O | 4518 | -3.0 | 3.2 | -5.8 | 3.9 | 1.5 | -19.7
CC(C)CCn1c(O)c(N=NC(=O)c2ccco2)c2ccccc21 | 2565 | 1.6 | 4.9 | 9.3 | 14.6 | -10.6 | -33.7
CC(=O)NC(=S)Nc1ccc(NC(=O)c2cccnc2Cl)cc1 | 4617 | x | x | -5.8 | 3.2 | 11.9 | -16.4
CCCc1[nH]n(-c2ccc([N+](=O)[O-])cc2)c(=O)c1C=NCCc1c[nH]c2ccccc12 | 2341 | x | x | 6.2 | 2.8 | -10.8 | -0.5
CCC(O)C1CCN(Cc2cn(Cc3ccccc3)nc2-c2cc3ccccc3o2)CC1 (stereo not given) | 2040 | -11.1 | -3.1 | -1.3 | -3.7 | -13.3 | -12.6
Cc1cc(OCC(O)CN2CCN(CCO)CC2)ccc1C(C)C (stereo not given) | 2536 | x | x | -0.2 | 1.6 | 2.3 | -3.0
CC1CCCC(C)N1C(=O)Cc1ccccc1 (stereo not given) | 9151 | 8.6 | -2.0 | 0.2 | 5.9 | 14.8 | -1.2
COc1ccccc1C(=O)Nc1cc(Cl)ccc1O | 2509 | 3.9 | -0.6 | 8.7 | -4.8 | -1.6 | -18.1
COc1ccc(CNC(=O)CCS(=O)(=O)c2ccc3c(c2)NC(=O)C(C)S3)cc1 (stereo not given) | x | 4.0 | 0.1 | -4.8 | 0.0 | 9.7 | -18.0
CC(CNC(=O)CCc1nnc2ccc(N3CCC4(CC3)OCCO4)nn12)c1ccccc1 (stereo not given) | 5964 | 4.7 | -1.3 | 5.5 | 1.6 | 10.1 | -5.6
CC1(C)CC(C)(O)N(Cc2ccccc2)C(=S)N1 (stereo not given) | 2416 | x | x | 2.8 | 5.0 | 3.1 | -3.8
O=[N+]([O-])c1ccccc1N(CC1CO1)S(=O)(=O)c1ccccc1 (stereo not given) | u | -8.3 | -12.5 | 0.8 | -0.5 | -3.5 | -2.5
CC1(C)CC(=O)C2=C(C1)Nc1ccccc1NC2c1ccc([N+](=O)[O-])cc1 (stereo not given) | 4579 | 6.0 | 3.5 | -2.7 | 1.6 | 2.9 | -19.4
COc1cccc(C=NCCCN=Cc2cccc(OC)c2O)c1O | 3624 | 1.0 | -0.6 | 0.7 | 5.7 | 9.7 | -7.7
COc1ccc(C(=O)C2CCCN(C(=O)c3n[nH]c4c3CCCC4)C2)cc1OC (stereo not given) | 4861 | -3.2 | -1.3 | 8.0 | 4.6 | -1.3 | -21.2
CC1CCCCC12NC(=O)N(CC(=O)Nc1ccc(S(=O)(=O)N3CCOCC3)cc1)C2=O (stereo not given) | u | 5.2 | 1.4 | 2.1 | 3.2 | 9.9 | -8.3
COc1ccc(NC(=O)c2ccc3c(c2)C(=O)N(Cc2cccnc2)C3=O)c(OC)c1 | 9904 | -2.0 | 1.0 | -7.2 | -0.4 | -1.5 | -12.5
CC(C)(C)N(Cc1ccccc1)C(=O)c1ccncc1 | 3598 | -2.8 | -1.0 | -12.7 | 1.4 | 2.3 | -10.1
CCCCn1c(SCC(=O)c2cc(OC)ccc2OC)nc2cc(S(N)(=O)=O)ccc21 | 3966 | 11.9 | 0.4 | 1.5 | 1.2 | 1.6 | -23.1
Cc1ccc(-c2nc(NCc3ccco3)n(S(C)(=O)=O)n2)cc1 | 4315 | 8.5 | 3.9 | -6.2 | 4.0 | 10.3 | -31.1
CCOc1ccc(-c2nnc(-c3snc(-c4ccc(F)cc4)c3N=CN(C)C)o2)cc1 | 3646 | x | x | -5.2 | -0.8 | -2.7 | -15.5
Cc1nc2ccc(NC(=S)NC3CCCCC3)cc2nc1C | 3183 | -2.4 | 1.5 | -2.6 | 1.4 | -13.5 | -83.8
COc1cc(=O)n(C)c2c(O)cccc12 | 5332 | x | x | 6.0 | 1.0 | 4.3 | -26.0
CC1(C)Cc2cccc(OCC(=O)NCCc3ccc(S(N)(=O)=O)cc3)c2O1 | 3114 | 1.6 | -2.6 | x | 4.3 | 7.8 | -15.9
COc1ccc(Cl)cc1C(=O)CSc1nnnn1C1CCCCC1 | 9517 | 6.1 | 5.7 | -8.9 | 2.6 | -2.0 | -23.7
CN(CC(=O)Nc1cccc(F)c1)C(=O)CSc1ccc(Br)cc1 | 4372 | 7.1 | 1.5 | -13.3 | 0.7 | 5.2 | -17.7
C[C@@H](NC(=O)OC(C)(C)C)C(=O)NCC1CCC(C(=O)N[C@@H](Cc2ccccc2)C(=O)O)CC1 (stereo not given in full) | 4231 | 10.5 | 6.1 | -3.6 | 3.7 | 6.6 | -17.0
N#CC12CCCCC1CC1CCCCC1(C#N)N2Cc1cccnc1 (stereo not given) | 2082 | x | x | 14.0 | 2.5 | 2.5 | -0.3
c1ccc(-c2ccn3nnnc3n2)cc1 | 4334 | 17.0 | -5.9 | 2.5 | 3.4 | 2.3 | -8.0
CCOC(=O)/C=C/C(=O)OCC(=O)Nc1ccc(Cl)cc1Cl | 4202 | 13.2 | 2.4 | 4.6 | 11.3 | 10.7 | -13.8
O=C(O)c1ccc(S(=O)(=O)NC2CCCCC2)cc1 | 9386 | 8.7 | 7.4 | -11.5 | 5.0 | 12.2 | -16.1
CC(C)c1csc(CN2CCC(CCC(=O)NCC3CCCO3)CC2)n1 (stereo not given) | 4060 | 5.3 | 2.0 | -1.3 | 2.8 | 8.6 | -1.3
CC(c1ccon1)N(C)Cc1cn[nH]c1-c1ccc(-c2ccccc2)cc1 (stereo not given) | 2454 | -6.9 | -4.6 | -2.0 | 5.4 | -8.4 | -25.4
Cc1onc(-c2ccccc2)c1C(=O)N1CCN(S(=O)(=O)c2ccccc2Br)CC1 | 2885 | 8.3 | 8.1 | 4.3 | 6.4 | 5.3 | -19.1
O=C(NCCCN1CCCC1=O)c1sc2ccccc2c1Cl | u | 4.7 | 5.9 | -12.4 | 3.8 | -0.1 | -14.2
COc1cc(-c2nnc3sc(C4CCCCC4)nn23)cc(OC)c1OC | 3404 | -0.9 | 7.3 | 1.4 | 2.8 | -5.8 | 6.8

Fetched by compound from above (three):
SMILES | Bead autofluor | Mtb hypoxia rep | Mtb hypoxia rep growth | BJeLR lethal | Sa RN4220 lethal | ugtP null kill | PrP UTR inh
CCOc1ccc(-c2nnc(-c3snc(-c4ccc(F)cc4)c3N=CN(C)C)o2)cc1 | 3646 | x | x | -5.2 | -0.8 | -2.7 | -15.5
CC(=O)NC(=S)Nc1ccc(NC(=O)c2cccnc2Cl)cc1 | 4617 | x | x | -5.8 | 3.2 | 11.9 | -16.4
COc1cccc(C=NCCCN=Cc2cccc(OC)c2O)c1O | 3624 | 1.0 | -0.6 | 0.7 | 5.7 | 9.7 | -7.7

Further records follow.
SMILES | Bead autofluor | Mtb hypoxia rep | Mtb hypoxia rep growth | BJeLR lethal | Sa RN4220 lethal | ugtP null kill | PrP UTR inh
Cc1nc(S/C(=C/c2ccc(-c3cccc(Cl)c3)o2)C(=O)O)n[nH]1 | 3538 | x | x | 12.8 | x | x | -9.8
COc1ccc(S(=O)(=O)NCc2cccnc2)cc1C | 4875 | 21.4 | 14.7 | 15.4 | 2.6 | -1.9 | -18.2
Cc1nc2ncnn2c(C)c1CCC(=O)N1CCC2(CC1)OCCO2 | 15808 | 2.6 | -3.6 | 2.8 | 3.6 | 4.9 | -12.1
CCOc1ccc(CCNC(=O)COC(=O)c2ccc3c(c2)OCCO3)cc1OCC | x | 5.7 | 2.0 | 4.7 | 1.7 | 5.8 | -17.7
